FGF22 binding = shifts melting point of recombinant human FGF22. calls only at 9.99 µM. recombinant FGF22 thermal shift, SYPRO orange fluorescence; percent of sucrose octasulfate shift, DMSO zero. 340,000 tested, 1.5% active. Q9HCT0;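 active = melting point raised past a set limit in the mean and every replicate; three in four hits are not shown here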
Target sequence (Q9HCT0 whole entry, looked up): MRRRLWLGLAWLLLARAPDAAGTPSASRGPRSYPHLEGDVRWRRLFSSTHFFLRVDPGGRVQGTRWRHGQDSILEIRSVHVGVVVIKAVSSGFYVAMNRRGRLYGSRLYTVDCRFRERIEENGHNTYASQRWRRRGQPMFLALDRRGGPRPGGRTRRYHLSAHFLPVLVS
Calls only; i = inactive.

FGF22 binding	mol
i	COC(=O)C1=C(C)N(Cc2ccc(C(F)(F)F)cc2)C(=NCc2ccccc2C(F)(F)F)NC1c1ccc(F)cc1 (configuration not stated)
i	COc1ccc(CN(C)C[C@@H]2OCCCC[C@@H](C)Oc3ccc(NC(=O)Cc4ccccc4)cc3C(=O)N([C@H](C)CO)C[C@H]2C)cc1
i	C[C@H]1CCCCO[C@H](CN(C)C(=O)Nc2ccccc2)[C@@H](C)CN([C@@H](C)CO)C(=O)c2cc(NS(=O)(=O)c3ccc(F)cc3)ccc2O1
i	C[C@@H]1CN([C@@H](C)CO)C(=O)Cc2cc(NS(=O)(=O)c3ccccc3)ccc2O[C@@H]1CN(C)S(=O)(=O)c1ccc(F)cc1
i	C[C@@H]1CN([C@H](C)CO)C(=O)c2cc(NS(C)(=O)=O)ccc2O[C@@H](C)CCCCO[C@H]1CN(C)Cc1ccc(C(F)(F)F)cc1
i	CC(C)(C)c1cccc(N/C(=C\C(=O)c2ccccc2)c2ccccc2)c1
i	CCNC(=O)[C@H]1[C@H](CO)[C@H]2Cn3c(ccc(-c4ccc(OC)cc4)c3=O)[C@@H]1N2CC1CC1
i	Nc1[nH]c(C(=O)c2ccccc2)c(-c2ccccn2)c1C(=O)c1c[nH]c2ccccc12
i	Cc1noc(C)c1S(=O)(=O)N(C)C[C@H]1OCCCC[C@@H](C)Oc2ccc(NC(=O)Nc3ccc4c(c3)OCO4)cc2C(=O)N([C@H](C)CO)C[C@@H]1C
i	C[C@H](CO)N1C[C@H](C)[C@H](CN(C)S(=O)(=O)c2cn(C)cn2)Oc2ccc(NC(=O)Cc3ccccc3)cc2CC1=O
i	COc1ccc(NC(=O)N(C)C[C@@H]2OCCCC[C@@H](C)Oc3ccc(NS(=O)(=O)c4ccc(OC)cc4)cc3C(=O)N([C@H](C)CO)C[C@H]2C)cc1
i	COC(=O)C[C@H]1CC[C@@H]2[C@@H](COc3ccc(NC(=O)NCc4ccccc4)cc3C(=O)N2C)O1

(listing goes on)
FGF22 binding	mol
i	CNC[C@H]1OCCCC[C@H](C)Oc2ccc(NS(=O)(=O)c3c(C)noc3C)cc2C(=O)N([C@H](C)CO)C[C@@H]1C
i	C[C@H](CO)N1C[C@H](C)[C@H](CN(C)S(=O)(=O)c2cn(C)cn2)Oc2ccc(NC(=O)CCC(F)(F)F)cc2CC1=O
i	COc1ccccc1CNC(=O)C[C@H]1CC[C@@H]2[C@H](COC[C@@H](O)CN2C(=O)Nc2ccc(F)cc2)O1
i	C[C@@H]1CN(C(=O)OC(C)(C)C)CCN1c1ccc(N2CCN(Cc3ccccc3)[C@@H](C)C2)c(C#N)c1
i	COc1ccc2c3c([nH]c2c1)[C@H](CO)N(C(=O)Nc1ccc(F)cc1)CC31CN(S(C)(=O)=O)C1
i	CC(C)C(=O)Nc1ccc2c(c1)C(=O)N(C)[C@@H]1CC[C@@H](CC(=O)NCc3ccccc3F)O[C@H]1CO2
i	CNC(=O)C[C@@H]1CC[C@H]2[C@H](COc3ccc(NC(=O)NCc4ccccc4)cc3C(=O)N2C)O1
i	CCNC(=O)C[C@@H]1CC[C@H]2[C@@H](COC[C@@H](O)CN2C(=O)Nc2cccc(OC)c2)O1
i	Cc1ccc(S(=O)(=O)Nc2ccc3c(c2)C(=O)N([C@H](C)CO)C[C@H](C)[C@H](CN(C)C(=O)c2ccncc2)OCCCC[C@@H](C)O3)cc1
i	CN(C)CCCNC(=O)C[C@H]1CC[C@@H]2[C@@H](COc3ccc(NC(=O)C4CCC4)cc3C(=O)N2C)O1
i	COc1ccc(-c2cc(NC(=O)Cc3c(C)[nH]c4ccccc34)ccc2Nc2cccnc2)cc1OC
i	COc1ccccc1CN1[C@@H]2CNC[C@H]1C2c1ccc(-c2cccnc2)cc1 (some centres not stated)

The listing continues:
FGF22 binding	mol
i	COc1ccc(C2CC(=O)C(c3ccc(F)cc3)=CN2Cc2ccccc2)cc1 (configuration not stated)
i	C[C@@H]1CN([C@@H](C)CO)C(=O)c2cc(NC(=O)NC3CCCCC3)ccc2O[C@@H](C)CCCCO[C@@H]1CN(C)S(=O)(=O)c1cccs1
i	O=C(Cc1c[nH]c2ccccc12)Nc1ccc(Nc2cccnc2)c(-c2ccc(-c3ccccc3)cc2F)c1
i	COC(=O)[C@@H](N[C@H](/C=C/c1ccccc1)[C@@H](O)Cc1ccccc1)C(C)C
i	Cc1noc(C)c1NC(=O)N(C)C[C@H]1OCCCC[C@@H](C)Oc2ccc(NS(C)(=O)=O)cc2C(=O)N([C@@H](C)CO)C[C@H]1C
i	C[C@@H]1CCCCO[C@@H](CN(C)Cc2ccc(C(F)(F)F)cc2)[C@H](C)CN([C@H](C)CO)C(=O)c2cc(NS(C)(=O)=O)ccc2O1
i	C[C@H](CO)N1C[C@H](C)[C@H](CN(C)Cc2ccncc2)Oc2ccc(NS(=O)(=O)c3cccs3)cc2CC1=O
i	CC(C)c1[nH]nc2c1C(c1ccc(Br)cc1)NC2=O (configuration not stated)
i	COc1ccccc1CN1C[C@@H]2N[C@H](C1)C2c1ccc(-c2cccc(C#N)c2)cc1 (some centres not stated)
i	CN1C(=O)c2cc(NC(=O)c3cccc(F)c3)ccc2OC[C@H]2O[C@H](CC(=O)O)CC[C@@H]21
i	COc1ccc2c3c([nH]c2c1)[C@@H](CO)N(C(=O)CN(C)C)CC31CN(CC2CCOCC2)C1
i	C[C@@H]1CN([C@@H](C)CO)C(=O)Cc2cc(NC(=O)Nc3cccc4ccccc34)ccc2O[C@@H]1CN(C)S(=O)(=O)c1cccs1

Further entries:
FGF22 binding	mol
i	C[C@H](CO)N1C[C@H](C)[C@H](CN(C)Cc2ccc3c(c2)OCO3)Oc2ccc(NS(=O)(=O)c3cn(C)cn3)cc2CC1=O
i	COC(=O)C[C@@H]1CC[C@@H]2[C@@H](COc3ccc(NC(=O)NCc4ccccc4)cc3C(=O)N2C)O1
i	O=C(C[C@@H]1CC[C@@H](NC(=O)c2ccc3c(c2)OCO3)[C@H](CO)O1)NC1Cc2ccccc2C1
i	CCNC(=O)N(C)[C@H]1C[C@H]2c3[nH]c4c(-c5ccccc5)cccc4c3CCN2C(=O)[C@H]1[C@H](C)O
i	CNC(=O)C[C@H]1CC[C@H]2[C@@H](COc3ccc(NC(=O)Nc4cccc(F)c4)cc3C(=O)N2C)O1
i	O=C(Cc1cccnc1)N1CC(=O)N2[C@H](CO)[C@H](c3ccc(/C=C/c4ccccc4)cc3)[C@@H]2C1
i	C[C@H]1CN([C@@H](C)CO)C(=O)Cc2cc(NC(=O)Cc3cn(C)c4ccccc34)ccc2O[C@H]1CN(C)Cc1ccc(Oc2ccccc2)cc1
i	CC(C)NC(=O)N1CC2(C1)[C@H](c1ccccc1)[C@@H](CO)N2Cc1ccccc1
i	Cc1ccc(S(=O)(=O)Nc2cccc3c2O[C@@H](CN(C)S(=O)(=O)c2ccc(F)cc2)[C@H](C)CN([C@H](C)CO)C3=O)cc1
i	N#Cc1cccc(-c2ccc(C3[C@@H]4CNC[C@H]3N4)cc2)c1 (some centres not stated)
i	COCC(=O)Nc1ccc2c(c1)[C@@H]1C[C@@H](CC(=O)N3CCN(C)CC3)O[C@H](CO)[C@@H]1O2
i	C[C@H]1CCCCO[C@H](CN(C)CC2CCCCC2)[C@@H](C)CN([C@@H](C)CO)C(=O)c2cc(NC(=O)CCC(F)(F)F)ccc2O1

More structures
FGF22 binding	mol
i	O=C(C[C@H]1CC[C@H]2NC[C@@H](O)COC[C@@H]2O1)Nc1ccc(-c2ccccc2)cc1
i	C[C@@H]1CCCCO[C@H](CN(C)S(=O)(=O)c2ccc(F)cc2)[C@H](C)CN([C@H](C)CO)C(=O)c2cc(NC(=O)Nc3ccc(F)cc3)ccc2O1
i	O=C(C[C@H]1CC[C@@H](NC(=O)Nc2ccc3c(c2)OCO3)[C@@H](CO)O1)NCCCN1CCOCC1
i	O=C(C[C@@H]1C[C@@H]2c3cc(NC(=O)NC4CCCC4)ccc3O[C@@H]2[C@@H](CO)O1)NCc1cc(F)ccc1F
i	C[C@H](NC(=O)C[C@@H]1CC[C@H]2[C@@H](COC[C@@H](O)CN2C(=O)Nc2cccc(Cl)c2)O1)c1ccccc1
i	O=S(=O)(c1ccccc1F)N1CCCCN2[C@H](CO)[C@@H](c3ccc(-c4ccncc4)cc3)[C@H]2C1
i	C[C@@H]1CN([C@@H](C)CO)C(=O)c2cc(NC(=O)c3ccncc3)ccc2O[C@@H](C)CCCCO[C@@H]1CN(C)S(C)(=O)=O
i	O=C(N[C@H](C(=O)N1CCC[C@H]1C(=O)NC1CCCC1)C1CCCCC1)c1ccco1
i	COc1ccc(NC(=O)Nc2ccc3c(c2)C(=O)N([C@H](C)CO)C[C@@H](C)[C@H](CN(C)S(=O)(=O)c2c(C)noc2C)OCCCC[C@@H](C)O3)cc1
i	O=C(c1ccccc1)N1CCC2CCN(S(=O)(=O)c3ccccc3)CC21 (configuration not stated)
i	C[C@H](O)[C@@H]1C(=O)N2CCc3c([nH]c4c(-c5ccccc5)cccc34)[C@@H]2C[C@@H]1N(C)C(=O)c1ccco1
i	Cc1noc(C)c1NC(=O)Nc1ccc2c(c1)CC(=O)N([C@H](C)CO)C[C@@H](C)[C@H](CN(C)S(=O)(=O)c1cn(C)cn1)O2

In a second layout: 14 of the compounds above.
mol | FGF22 binding
COC(=O)C1=C(C)N(Cc2ccc(C(F)(F)F)cc2)C(=NCc2ccccc2C(F)(F)F)NC1c1ccc(F)cc1 (configuration not stated) | i
COc1ccc(CN(C)C[C@@H]2OCCCC[C@@H](C)Oc3ccc(NC(=O)Cc4ccccc4)cc3C(=O)N([C@H](C)CO)C[C@H]2C)cc1 | i
C[C@H]1CCCCO[C@H](CN(C)C(=O)Nc2ccccc2)[C@@H](C)CN([C@@H](C)CO)C(=O)c2cc(NS(=O)(=O)c3ccc(F)cc3)ccc2O1 | i
C[C@@H]1CN([C@@H](C)CO)C(=O)Cc2cc(NS(=O)(=O)c3ccccc3)ccc2O[C@@H]1CN(C)S(=O)(=O)c1ccc(F)cc1 | i
C[C@@H]1CN([C@H](C)CO)C(=O)c2cc(NS(C)(=O)=O)ccc2O[C@@H](C)CCCCO[C@H]1CN(C)Cc1ccc(C(F)(F)F)cc1 | i
CC(C)(C)c1cccc(N/C(=C\C(=O)c2ccccc2)c2ccccc2)c1 | i
CCNC(=O)[C@H]1[C@H](CO)[C@H]2Cn3c(ccc(-c4ccc(OC)cc4)c3=O)[C@@H]1N2CC1CC1 | i
Nc1[nH]c(C(=O)c2ccccc2)c(-c2ccccn2)c1C(=O)c1c[nH]c2ccccc12 | i
Cc1noc(C)c1S(=O)(=O)N(C)C[C@H]1OCCCC[C@@H](C)Oc2ccc(NC(=O)Nc3ccc4c(c3)OCO4)cc2C(=O)N([C@H](C)CO)C[C@@H]1C | i
C[C@H](CO)N1C[C@H](C)[C@H](CN(C)S(=O)(=O)c2cn(C)cn2)Oc2ccc(NC(=O)Cc3ccccc3)cc2CC1=O | i
COc1ccc(NC(=O)N(C)C[C@@H]2OCCCC[C@@H](C)Oc3ccc(NS(=O)(=O)c4ccc(OC)cc4)cc3C(=O)N([C@H](C)CO)C[C@H]2C)cc1 | i
COC(=O)C[C@H]1CC[C@@H]2[C@@H](COc3ccc(NC(=O)NCc4ccccc4)cc3C(=O)N2C)O1 | i
CNC[C@H]1OCCCC[C@H](C)Oc2ccc(NS(=O)(=O)c3c(C)noc3C)cc2C(=O)N([C@H](C)CO)C[C@@H]1C | i
C[C@H](CO)N1C[C@H](C)[C@H](CN(C)S(=O)(=O)c2cn(C)cn2)Oc2ccc(NC(=O)CCC(F)(F)F)cc2CC1=O | i

Following part
FGF22 binding	mol
i	COc1cccc(CNC(=O)C[C@@H]2CC[C@@H]3[C@@H](COc4ccc(NC(C)=O)cc4C(=O)N3C)O2)c1
i	CN(C)C(=O)c1cccc(-c2ccc3c(c2)[C@@H]2[C@@H](CCN2C(=O)c2cccnc2)[C@@H](CO)N3)c1
i	CN1c2ccc(-c3cccc(C#N)c3)cc2[C@H]2[C@H](CCN2C(=O)NC2CCCCC2)[C@@H]1CO
i	COc1ccc(C#Cc2ccc3c(c2)[C@@H]2[C@@H](CCN2C(=O)c2ccccc2F)[C@@H](CO)N3C)cc1
i	C[C@H]1CN([C@@H](C)CO)C(=O)c2cc(NS(=O)(=O)c3ccc(Cl)cc3)ccc2O[C@H]1CN(C)S(=O)(=O)c1ccccc1
i	C[C@H]1CCCCO[C@H](CN(C)C(=O)C2CCCCC2)[C@@H](C)CN([C@@H](C)CO)C(=O)c2cc(NC(=O)CCCN(C)C)ccc2O1
i	C[C@@H]1CCCCO[C@@H](CN(C)C(=O)CCCN(C)C)[C@H](C)CN([C@@H](C)CO)C(=O)c2cc(NC(=O)c3ccncc3)ccc2O1
i	COc1cccc(NC(=O)Nc2ccc3c(c2)C(=O)N(C)[C@@H]2CC[C@H](CC(=O)O)O[C@H]2CO3)c1
i	C[C@@H]1CN([C@H](C)CO)C(=O)c2cc(NS(=O)(=O)c3cn(C)cn3)ccc2O[C@@H](C)CCCCO[C@H]1CN(C)Cc1ccc(C(=O)O)cc1
i	CCC(=O)N(C)C[C@H]1[C@H](c2ccc(C3=CCCCC3)cc2)[C@@H](CO)N1C(C)=O
i	CC(=O)C1=C(C)N(Cc2ccc(Br)cc2)C(=S)NC1c1cccc(F)c1 (configuration not stated)
i	CN(C)C(=O)C[C@H]1C[C@H]2c3cc(NC(=O)Nc4ccccc4)ccc3O[C@H]2[C@H](CO)O1

Going on with the list:
FGF22 binding	mol
i	C[C@@H]1CN([C@H](C)CO)C(=O)c2cc(NS(=O)(=O)c3cccs3)ccc2O[C@@H](C)CCCCO[C@@H]1CN(C)C(=O)CCC(F)(F)F
i	COCC(=O)Nc1ccc2c(c1)C(=O)N(C)[C@H]1CC[C@@H](CC(=O)Nc3cn(C)nc3C)O[C@H]1CO2
i	C[C@@H]1CN([C@H](C)CO)C(=O)c2cc(NC(=O)Nc3cccc4ccccc34)ccc2O[C@@H](C)CCCCO[C@@H]1CN(C)S(=O)(=O)c1cccs1
i	COc1cc2c(cc1OC)[C@@]1(c3ccccc3)CCCC[C@H]1[C@@H]2NC(=O)C(F)(F)F

An excerpt (hit frequency here may not be typical).
